ClpP mod = qHTS Assay for Activators of ClpP; Potency, µM (series often up to 57.5 µM), without a hit: top-dose activity change, negative = active; 340,000 tested, 1.9% active; purified B. subtilis ClpP, FRET peptide cleavage, 20 min; active = well fitted falling curve with a large enough effect; inconclusive = small, poorly fitted or top-dose-only effect; inactive = no such curve, though single readings can be large or run the other way; note: potency is the fitted concentration of half-maximal effect; the source files actives as falling curves though it sought activators and does not explain the sign; nearly all actives have a fitted effect of over 65% in size; many hits overshoot -100%
Target sequence (P80244 whole entry, looked up): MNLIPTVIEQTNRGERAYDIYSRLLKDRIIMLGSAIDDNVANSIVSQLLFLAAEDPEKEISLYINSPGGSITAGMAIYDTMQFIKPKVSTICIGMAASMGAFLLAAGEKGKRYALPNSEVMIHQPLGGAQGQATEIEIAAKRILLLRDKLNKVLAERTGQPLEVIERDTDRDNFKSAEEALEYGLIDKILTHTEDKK
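Purified B. subtilis ClpP, 10 microg/mL final in Tris/HCl pH8 with KCl, BSA, glycerol and Tween-20, cleaved an Abz/nitrotyrosine-quenched decapeptide. Fluorescence (ex 320, em 430) was read at 0 and 20 min at room temperature. Delta was normalized to 5.8 microM ADEP and DMSO/no-enzyme controls.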
gsp ag = activates gsp, the McCune-Albright syndrome mutation; Potency, µM (top dose mostly 76.9 µM), inactives show top-dose activation (cAMP increase), usual class: activators; gsp mutant cells, cAMP HTRF, 30 min; control for the full effect not named in the record; AID 624287; 340,000 tested, 0.13% active; active = well fitted activation curve with a large enough effect; inconclusive = small, poorly fitted or top-dose-only effect, or another doubt; inactive = no such curve, though single readings can be large or run the other way; cell line not stated here;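 note: phosphodiesterase inhibitor Ro 20-1724 added with compounds to block cAMP breakdown; potency is the fitted concentration of half-maximal effect; nearly all actives have a fitted effect of over 60% in size; about a fifth of the inactives were tested at one dose only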
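Cells stably selected in G418 were plated at 2000/well, grown 16-24 hr, then given compounds in DMSO with the PDE inhibitor […] (300 uM solution added) for 30 min at 37C; cAMP was read by HTRF.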
Menin MLL FP FL = inhibitors of human menin-MLL interaction, wild-type MLL peptide; Fluorescence polarization, fluorescein-MLL peptide displacement from menin; FP activity change, % at 61.4 µM; 290,000 tested, under 10 active; inconclusive = falling polarisation curve, or a change in total fluorescence; inactive = total fluorescence flat and polarisation flat or rising; no compound was filed as active; the % refers to the polarisation; negative = inhibition;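 note: % of control where 0% means no effect; inhibitors lower the polarisation; unlabelled MLL peptide was the positive control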
gsp antag = gsp mutant antagonism; Potency, µM (top dose mostly 76.9 µM), without a hit: at the highest dose activity change, negative = inhibition, actives largely listed as inhibitors; AID 624288; 340,000 tested, 0.4% active; gsp-mutant cells, cAMP HTRF, 30 min; control for the full effect not named in the record; active = falling curve of any shape with a large fitted effect; inconclusive = falling curve, mostly with a smaller effect; inactive = flat or rising curve; cell line not stated here;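 note: intracellular cAMP measured with PDE inhibitor Ro 20-1724 present during compound exposure; potency is the fitted concentration of half-maximal effect; % is set by controls: 0 for no effect and ±100 for the full control effect; nearly all actives have a fitted effect of over 65% in size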
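Cells in G418 medium, seeded 16-24 h, 37C; buffer exchange to DPBS + 1 mM CaCl2, 0.5 mM MgCl2, 0.05% BSA; cpds in DMSO + […] (300 uM stock), 30 min 37C; HTRF cAMP detection.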
TRPML1 agonist = activates the human TRPML1 channel. Q9GZU1. TRPML1-expressing cells, Ca2+ dye fluorescence, FDSS; host cell line not named in the record; reference of the full effect not given here. activation, % (test concentration not listed). 410,000 tested, 0.12% active. AID 624414; in the data active = activation above about 50%; inconclusive = about 30% to 50%; inactive = below about 30%; note: 0% is about no effect; the text of the record puts the active cut at 80%
Target sequence (Q9GZU1 whole entry, looked up): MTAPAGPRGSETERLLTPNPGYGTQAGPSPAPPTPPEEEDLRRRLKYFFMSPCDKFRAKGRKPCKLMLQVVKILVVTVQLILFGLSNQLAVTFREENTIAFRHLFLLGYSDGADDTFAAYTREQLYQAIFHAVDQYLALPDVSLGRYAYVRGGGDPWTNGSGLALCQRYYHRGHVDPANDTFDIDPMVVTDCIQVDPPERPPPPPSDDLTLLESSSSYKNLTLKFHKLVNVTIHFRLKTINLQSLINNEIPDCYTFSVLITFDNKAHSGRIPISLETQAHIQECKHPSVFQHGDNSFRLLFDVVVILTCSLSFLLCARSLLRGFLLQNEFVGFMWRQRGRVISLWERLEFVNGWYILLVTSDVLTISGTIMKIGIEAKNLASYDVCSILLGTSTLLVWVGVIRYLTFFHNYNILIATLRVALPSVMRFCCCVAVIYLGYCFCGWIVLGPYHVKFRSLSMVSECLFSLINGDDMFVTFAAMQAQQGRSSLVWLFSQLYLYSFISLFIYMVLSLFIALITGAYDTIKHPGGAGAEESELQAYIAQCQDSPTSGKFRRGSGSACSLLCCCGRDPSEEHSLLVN
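Tetracycline-induced TRPML1-DL cells are seeded and incubated overnight before loading with a no-wash Ca2+ dye and quencher. Agonist activity is taken from the 110 s fluorescence read following compound pin-transfer on an FDSS, before EC80 54-4 challenge.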
TRPML1 inh = human mucolipin-1 channel inhibition; AID 624415; TRPML1-inducible cells, Ca2+ dye fluorescence, FDSS; active compounds read low; inhibition of EC80 agonist-evoked calcium signal; 390,000 tested, 0.02% active; Q9GZU1; activity change, negative = inhibition, % (no concentration beside the values); in the data active means activity change below about -50%; inconclusive means about -30% to -50%; inactive means above about -30%;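 note: stimulus is agonist 54-4 at its EC80 concentration; % is set by controls: 0 for no effect and ±100 for the full control effect; compound concentration not given in the record; the text of the record puts the active cut at -80%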
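Tet-induced TRPML1-DL cells loaded with Ca8 no-wash calcium dye were read kinetically on FDSS. Compound addition was followed by EC80 agonist 54-4 (4 uM final); inhibition was read over 110 s.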
* = called active by the depositor; [ ] = remark or other dose.

C(=C\c1ccccc1)/CN1CCN(C(c2ccnc3ccccc23)c2nnnn2C2CCCCC2)CC1 (centres undefined) was read as ClpP mod -0.1%, TRPML1 agonist 0.9 and TRPML1 inh -5.
Screening COc1ccc(NC2=C3CCCC=C3N(c3ccc(OC)cc3)C2=O)cc1 returned ClpP mod -0.2%, gsp ag -22%, Menin MLL FP FL 1.5, gsp antag -30%, TRPML1 agonist 0.5 and TRPML1 inh 13.
CCC1CCCCN1C/C=C/c1ccccc1[N+](=O)[O-] (centres undefined) was read as ClpP mod -0.1%, gsp ag -1%, Menin MLL FP FL 1.8, gsp antag 5%, TRPML1 agonist 0.2 and TRPML1 inh -5.
For O=C(COC(=O)/C=C/c1ccc(OC(F)F)cc1)NC1CCCC1 the results were ClpP mod -15%, gsp ag 2%, gsp antag 6%, TRPML1 agonist 1.4 and TRPML1 inh -3.
For Cc1nonc1OCCN1CCN(c2ccccc2[N+](=O)[O-])CC1 the results were gsp ag 0%[15.4 µM], Menin MLL FP FL -0.4, gsp antag -8%, TRPML1 agonist 0.2 and TRPML1 inh 3.
Screening CCOC(=O)c1cc(C(=O)NCc2ccc(Cl)cc2Cl)nn1C returned ClpP mod -1.8%, gsp ag 14%, Menin MLL FP FL 1.9, gsp antag 7%, TRPML1 agonist 3.5 and TRPML1 inh -4.
Screening O=C(Nc1ccc(-n2cnnn2)cc1)C(c1ccccc1)c1ccccc1 returned ClpP mod -2.4%, gsp ag 3%, Menin MLL FP FL 2.6, gsp antag -1%, TRPML1 agonist -0.8 and TRPML1 inh 16.
`Cc1cccc(OCC(O)CN2CCc3ccccc3C2)c1` (centres undefined) gave ClpP mod 2.5%, gsp ag inconclusive, Menin MLL FP FL -0.8, gsp antag 13%, TRPML1 agonist 0.9 and TRPML1 inh -24.
CCOc1cc(C2C(C(=O)OCC(C)C)=C(C)N=C3SCCC(=O)N32)ccc1OC(C)=O (centres undefined) was read as ClpP mod 0.1%, gsp ag -27%, Menin MLL FP FL 2.9, gsp antag -12%, TRPML1 agonist 0.0 and TRPML1 inh -1.
For COc1ccc(N2CC(NC(=O)c3ccc(S(=O)(=O)N4CCCCC4)cc3)CC2=O)cc1 (centres undefined) the results were ClpP mod 0.8%, TRPML1 agonist 1.4 and TRPML1 inh 3.
For O=C(c1cccnc1)N1CCN(Cc2ccc3ccccc3c2)CC1 the results were ClpP mod -0.9%, gsp ag -19%, Menin MLL FP FL 3.0, gsp antag -8%, TRPML1 agonist -0.2 and TRPML1 inh 12.
Screening COC(=O)NC1CSCC1OC(=O)c1ccc(Br)cc1 (centres undefined) returned ClpP mod -1.0%, gsp ag inconclusive, Menin MLL FP FL 3.8, gsp antag -7%, TRPML1 agonist 0.4 and TRPML1 inh -1.
For CCCC(=O)Nc1ccc(C(=O)Nc2cc(C(F)(F)F)ccc2Cl)cc1 the results were ClpP mod 4.4%, gsp ag 8%, Menin MLL FP FL 1.8, gsp antag 1%, TRPML1 agonist 1.5 and TRPML1 inh -3.
Cn1c(NCCO)nc2c1c(=O)n(Cc1ccc(F)cc1)c(=O)n2C was read as ClpP mod -0.4%, gsp ag -12%[15.4 µM], Menin MLL FP FL -3.6, gsp antag 29%, TRPML1 agonist -0.1 and TRPML1 inh 7.
`CCCN1CCN(C(c2cc3cc(OCC)ccc3[nH]c2=O)c2nnnn2C2CCCCC2)CC1` (centres undefined) gave ClpP mod 28µM*, gsp ag -56%, Menin MLL FP FL 4.8, gsp antag -2%, TRPML1 agonist 0.5 and TRPML1 inh 3.
`Cc1cccc(-c2noc(-c3ccccc3OCC(=O)Nc3ccccc3[N+](=O)[O-])n2)c1` gave ClpP mod -1.0%, TRPML1 agonist 0.7 and TRPML1 inh 9.
N#Cc1ccc(C(=O)N/N=C/c2cn(CC(=O)O)c3ccccc23)c(F)c1 was read as ClpP mod 1.3%, gsp ag -67%[inhibitor], gsp antag 4%, TRPML1 agonist -0.4 and TRPML1 inh 15.
CCCNC(=O)Cn1cc(S(=O)(=O)N2CCCC2)c(S(=O)(=O)N2CCCC2)c1 was read as ClpP mod -4.5%, gsp ag inconclusive, gsp antag 7%, TRPML1 agonist -0.4 and TRPML1 inh 4.
CN(c1ccccc1)S(=O)(=O)c1ccc(NC(=O)c2cc(=O)c3ccccc3o2)cc1 was read as ClpP mod 0.7%, TRPML1 agonist -0.9 and TRPML1 inh 14.
`O=C(NC1(C(F)(F)F)N=C2SCCN2C1=O)c1ccccc1F` (centres undefined) gave ClpP mod 0.5%, gsp ag -11%, Menin MLL FP FL 0.0, gsp antag 1%, TRPML1 agonist -0.4 and TRPML1 inh 13.

Next section, overlapping the part above by 2 compounds.
CN(c1ccccc1)S(=O)(=O)c1ccc(NC(=O)c2cc(=O)c3ccccc3o2)cc1 was read as ClpP mod 0.7%, TRPML1 agonist -0.9 and TRPML1 inh 14.
`O=C(NC1(C(F)(F)F)N=C2SCCN2C1=O)c1ccccc1F` (centres undefined) gave ClpP mod 0.5%, gsp ag -11%, Menin MLL FP FL 0.0, gsp antag 1%, TRPML1 agonist -0.4 and TRPML1 inh 13.
Screening Cc1nc2cc(C(=O)O)ccc2n1-c1ccccc1 returned ClpP mod -2.0%, gsp ag -4%, Menin MLL FP FL -0.3, gsp antag -16%, TRPML1 agonist -0.2 and TRPML1 inh -9.
Screening CC1(C)C(CO)=CC(=O)C2=C1SCC(=O)N2 returned ClpP mod -0.6%, Menin MLL FP FL 1.8, gsp antag 6%, TRPML1 agonist 0.1 and TRPML1 inh -11.
`COc1ccccc1NC(=S)N/N=C/c1cccc(C)c1` gave ClpP mod 0.6%, gsp ag 11%, Menin MLL FP FL 4.5, gsp antag 0%, TRPML1 agonist -0.2 and TRPML1 inh 25.
COc1cc(/C=C/C(=O)NCC(=O)N2CCC(N(C)CCN3CCOCC3)CC2)ccc1OC(C)C was read as gsp ag -35%, Menin MLL FP FL -4.3, gsp antag 2%, TRPML1 agonist 0.4 and TRPML1 inh 21.
CCOc1ccc2[nH]c(=O)c(CN(CCO)C(=O)c3ccc(F)cc3)cc2c1 was read as ClpP mod 22µM*, gsp ag 3%, Menin MLL FP FL 1.0, gsp antag -6%, TRPML1 agonist -0.6 and TRPML1 inh 27.
`CC(=O)c1sc(NC(=O)c2ccccc2C)nc1C` gave gsp ag -10%, Menin MLL FP FL 2.1, gsp antag -9%, TRPML1 agonist -0.3 and TRPML1 inh 3.
For Cc1[nH]c2ccccc2c1/C=C(\C#N)S(=O)(=O)c1ccccc1 the results were ClpP mod -1.1%, gsp ag -1%, Menin MLL FP FL 2.2, gsp antag -23%, TRPML1 agonist 0.1 and TRPML1 inh 14.
For CCCn1c(NC(=O)C2CCN(C(=O)c3ccc(F)cc3)CC2)nc2ccccc21 the results were ClpP mod -9.8%, gsp ag -1%, gsp antag -5%, TRPML1 agonist 1.8 and TRPML1 inh -18.
Cc1nc(SCC(=O)Nc2ccccn2)n[nH]1 was read as gsp ag inconclusive, Menin MLL FP FL 2.0, gsp antag 11%, TRPML1 agonist -0.1 and TRPML1 inh 3.
Screening CCCCOc1cccc(C(=O)NC(=S)Nc2cccc(NC(=O)c3ccccc3Cl)c2)c1 returned ClpP mod 0.6%, gsp ag 0%, Menin MLL FP FL 2.6, gsp antag -6%, TRPML1 agonist -0.2 and TRPML1 inh -10.
CSc1nnnc2ccccc12 was read as ClpP mod 0.4%, gsp ag 10%[15.4 µM], gsp antag 11%, TRPML1 agonist 0.2 and TRPML1 inh 5.
For COc1ccc(-c2noc(CCCC(=O)NCCc3ccccc3)n2)cc1OC the results were ClpP mod 0.3%, gsp ag -1%, Menin MLL FP FL 2.9, gsp antag 0%, TRPML1 agonist -0.1 and TRPML1 inh 34.
For Cc1ccc(C(=O)N/C(=C/c2ccc(N(C)C)cc2)C(=O)NCC2CCCO2)cc1 (centres undefined) the results were ClpP mod -1.4%, gsp ag -3%[15.4 µM], Menin MLL FP FL 7.8, gsp antag -13%, TRPML1 agonist -0.4 and TRPML1 inh 2.
For C[C@@]12C(=O)N(CC3CCCO3)CC(=O)N1[C@H]1c3ccccc3OC[C@@H]1[C@@H]2c1ccccc1 (some centres undefined) the results were ClpP mod 0.0%, gsp ag 22%, gsp antag -2%, TRPML1 agonist 0.1 and TRPML1 inh -5.
Clc1ccccc1Cn1nnc(-c2cccs2)n1 was read as ClpP mod -0.9%, gsp ag 13%, Menin MLL FP FL 2.0, gsp antag -2%[15.4 µM], TRPML1 agonist 0.2 and TRPML1 inh 15.
For N/C(=N\OC(=O)Cc1ccccc1)c1ccc([N+](=O)[O-])cc1 the results were ClpP mod 0.3%, gsp ag inconclusive, Menin MLL FP FL -1.2, gsp antag 9%, TRPML1 agonist 0.3 and TRPML1 inh 24.
`S=C(NNC(=S)NC1CC2CCC1C2)NC1CC2C=CC1C2` (centres undefined) gave gsp ag 5%[15.4 µM], Menin MLL FP FL 4.3, gsp antag -5%, TRPML1 agonist -0.1 and TRPML1 inh 23.
O=C(NCc1cccs1)C1CCCN(S(=O)(=O)c2ccc3c(c2)OCO3)C1 (centres undefined) was read as ClpP mod -0.6%, gsp ag 9%, Menin MLL FP FL 1.5, gsp antag -11%, TRPML1 agonist -0.3 and TRPML1 inh 1.
Screening COc1ccc(NC(=O)N[C@@H](CCSC)C(=O)O)cc1OC returned gsp ag 7%[15.4 µM], Menin MLL FP FL 6.0, gsp antag 3%, TRPML1 agonist -0.8 and TRPML1 inh -16.
`CC(C)(C)c1ccc(C(=O)c2c[nH]c(C(=O)NCCCn3ccnc3)c2)cc1` gave ClpP mod 2.2%, gsp ag -2%, Menin MLL FP FL 2.4, gsp antag -6%, TRPML1 agonist -0.5 and TRPML1 inh -2.

Two successive entries already listed, quoted:
Screening Cc1nc2cc(C(=O)O)ccc2n1-c1ccccc1 returned ClpP mod -2.0%, gsp ag -4%, Menin MLL FP FL -0.3, gsp antag -16%, TRPML1 agonist -0.2 and TRPML1 inh -9.
Screening CC1(C)C(CO)=CC(=O)C2=C1SCC(=O)N2 returned ClpP mod -0.6%, Menin MLL FP FL 1.8, gsp antag 6%, TRPML1 agonist 0.1 and TRPML1 inh -11.

Next section:
For Nc1c(Cl)c(Cl)nc(C(=O)N/N=C/c2cccnc2)c1Cl the results were gsp ag 11%[15.4 µM], Menin MLL FP FL -0.9, gsp antag -7%, TRPML1 agonist 0.4 and TRPML1 inh -1.
C#Cc1cccc(NC(=O)Cc2cccs2)c1 was read as gsp ag -67%[inhibitor], Menin MLL FP FL -0.9, gsp antag -2%, TRPML1 agonist 0.5 and TRPML1 inh -5.
`CCCCCn1c(=O)[nH]c2cc(C(=O)N3CCN(c4ccc(C(C)=O)cc4)CC3)ccc2c1=O` gave gsp ag 10%, Menin MLL FP FL 0.6, gsp antag -28%, TRPML1 agonist 1.0 and TRPML1 inh 8.
Screening O=C(NCCSCc1ccco1)Nc1ccc(Cl)cc1 returned ClpP mod -1.2%, gsp ag 2%, Menin MLL FP FL -1.5, gsp antag -10%, TRPML1 agonist 1.1 and TRPML1 inh 37.
